RN4220 kill = kills Staphylococcus aureus RN4220; S. aureus RN4220 growth, OD600, 16 h; inhibition, % (no concentration beside the values); 330,000 tested, 0.33% active; AID 1259311;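 active = z-score of -3 or lower and OD600 up to 0.18 on both plates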;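 also: plate controls were untreated cells for no effect and reference antibiotic for full effect; stock transfer was 100 nL into about 80 µL; one replicate is shown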
PrP UTR inh = inhibition of PrP 5' UTR reporter expression. 340,000 tested, 0.35% active. inhibition, % (no concentration beside the values). AID 488862. cell-based PrP 5' UTR mRNA reporter, plate reader;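 active = every replicate at 50% or more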;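 also: 0 = median of the neutral control wells; tested in H4 reporter cells; numbers are from one replicate; inactives centre near -14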
Bead autofluor = counter-screen for toxin protease inhibitors: compound fluorescence | compound autofluorescence counterscreen, microsphere flow cytometry; hits give high values | fluorescence intensity (test concentration not listed) | 360,000 tested, 3.1% active;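 active = at least 3 SD above the mean of all compounds, about 16000 in these data; inconclusive = too few beads counted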;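 also: 100 nL of 1 mM stock went into each well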
Sa ugtP lethal = kills S. aureus RN4220 lacking UgtP; S. aureus RN4220 ugtP deletion, OD600 growth, 16 h; some inactives read as strong as hits; growth inhibition, % (concentration not given with the values); 330,000 tested, 0.54% active;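 active = z-score under -3 and OD600 up to 0.15 on both plates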;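 also: plate controls were untreated wells for no effect and antibiotic for full effect; wells of about 80 µL received 100 nL stock; the first replicate is given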
BJeLR viability = kills HRASV12-expressing BJeLR cells | BJeLR (HRASV12) viability, CellTiter-Glo ATP luminescence, 48 h; reference of the scale not given here | inhibition, % (no concentration beside the values) | 300,000 tested, 0.17% active;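 active = replicate mean above 50%; inconclusive = above 50% but judged a plate artefact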;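 also: 50 nL library stock added to about 25 µL; numbers are from one replicate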
Mtb hypoxia inh = inhibitors of hypoxia-regulated fluorescent reporter in Mycobacterium tuberculosis | fluorescence inhibition, % (concentration not given with the values) | 300,000 tested, 0.1% active | M. tuberculosis hypoxia-regulated fluorescent reporter, fluorescence;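 active = 35 to 45% if threefold the growth effect, above 45% if 1.5-fold the growth effect; inactive = the rest, general growth blockers included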;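 also: wells of about 50 µL received 100 nL stock; 0% = vehicle wells and 100% = reference inhibitor wells; whole bacteria with a GFP reporter of the hypoxia response; strong numbers were not always called active; many hits fall short of the cut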
Mtb hypoxia inh growth = second read-out of Mtb hypoxia inh, no call of its own (marks repeat the call); growth inhibition, %; measured here: M. tuberculosis growth (absorbance);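 0% = vehicle and 100% = reference antibiotic; read after six days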
Numbers without * were called inactive; ? = inconclusive; · = not tested or not shown; & = joins results of further samples. No enrichment for hits. Share with any hit: about 4%.

SMILES | RN4220 kill | PrP UTR inh | Bead autofluor | Sa ugtP lethal | BJeLR viability | Mtb hypoxia inh | Mtb hypoxia inh growth
CCc1c(C)nc2c(OC)cccc2c1Cl | 8.7 | -20 | 5097 | 8 | 6 | 13 | 16
CC(NC(=O)c1ccc(Br)cc1)C(=O)NC1=NCCS1 (stereo not given) | 1.1 | -22 | 3378 | 6 | 0 | 7 | 3
Cc1ccc(N2C(=O)NC(=O)/C(=C\c3cc(C)n(-c4cc(C(=O)O)cc(C(=O)O)c4)c3C)C2=O)cc1 | 4.7 | -10 | 3004 | 12 | 0 | 3 | -2
CCCOC(=O)c1ccc(OCC(O)Cn2c(C)nc3ccccc32)cc1 (stereo not given) | 1.1 | -24 | 5743 | 5 | 11 | 6 | 1
Cc1cccc(NC(=O)CCN2C(=O)C3C4C=CC(C4)C3C2=O)n1 (stereo not given) | 3.0 | -6 | 2676 | -2 | 3 | · | ·
O=C(NCCc1ccncc1)Nc1cccc(Cl)c1 | -2.4 | -23 | 4667 | -2 | 7 | · | ·
CC(=O)Nc1ccc(NC(=O)c2ccc(Cl)nc2)cc1 | 1.2 | 4 | 3762 | 7 | 12 | 6 | 9
O=S(=O)(NCc1ccccc1)NCc1ccccc1F | 6.0 | -6 | 2658 | 0 | 2 | 0 | 4
Cc1cc(C)[n+](CCCC[n+]2c(C)cc(C)cc2C)c(C)c1 | 2.9 | 10 | 3875 | 2 | -6 | 3 | 14
Cc1cc(Cl)c2c(c1)[C@]1(C(=O)N2)[C@@H]2C(=O)N(Cc3ccccc3)C(=O)[C@@H]2[C@@H]2CCCN21 | 3.1 | -7 | 4676 | -12 | -17 | -7 | 1
COc1ccc(CCNc2ccc(C(=O)O)cc2[N+](=O)[O-])cc1OC | 3.1 | 62* | 4329 | 10 | 7 | 18 | 13
C/C(=N\NC(=O)c1cccc(Br)c1)c1ccc(Br)cc1 | · | -21 | 4514 | · | 8 | · | ·
CCOc1ccc(C(=O)NC(=S)Nc2ccc(N3CCCCC3)cc2)cc1[N+](=O)[O-] | 0.6 | -10 | 2383 | 31 | -5 | 17 | 18
N#CC(=C1CCCC1)c1nc(-c2ccccc2O)cs1 | 2.5 | -198 | 2252 | 3 | -1 | · | ·
COc1ccccc1C=NNc1nc(C)cc(C)n1 | 6.1 | · | · | 7 | · | 13 | 1
CC1CCCC(NC(=O)CSc2nccn2C)C1C (stereo not given) | -8.2 | -22 | 2896 | -3 | 0 | 11 | 13
CCOC(=O)CSc1nnc(CNC(=O)c2cccs2)n1CCc1ccccc1 | 6.0 | -16 | 11514 | 4 | -9 | 5 | 12
Cc1[nH]c(=O)[nH]c(=O)c1S(=O)(=O)N1CCOCC1 | 2.9 | -15 | 4290 | 2 | -4 | -1 | -5
COc1cc(S(=O)(=O)N2CCOCC2)ccc1NC(=O)c1cc2c(s1)CCC2 | 10 | -12 | 3226 | -4 | -9 | -12 | 8
CCCCC(=O)N(c1ccc(OC)cc1)C1C=CS(=O)(=O)C1 (stereo not given) | 3.2 | -44 | 11249 | 5 | 0 | 3 | -4
Cc1cc(Cl)cc(Br)c1OCCCCn1cncn1 | 2.4 | -1 | 3052 | 2 | 0 | · | ·
NNC(=O)[C@H](Cc1ccccc1)NC(=O)Nc1ccc2c(c1)OCCO2 | 2.4 | -17 | 5487 | 2 | -9 | 9 | 2
COc1ccccc1NC(=O)CSc1nc(C)c2c(c1C#N)CCCC2 | 1.0 | -13 | 23495* | -6 | 5 | 4 | 10
Oc1ccccc1C(=S)N1CCN(c2cccc(Cl)c2)CC1 | -1.4 | -52 | 3987 | -3 | -2 | -1 | 5
COc1ccc(/C=C/C(=O)c2cc(F)ccc2OC(=O)c2ccccc2OC)cc1OC | 9.9 | 47 | 4232 | 5 | 41 | 14 | 11
O=C(Cn1c(=O)[nH]c2ccccc2c1=O)N1CCN(Cc2ccc3c(c2)OCO3)CC1 | 1.3 | -5 | 5925 | 5 | 8 | 10 | 4
COc1ccc(/C=N/NC(=O)CCn2nnc3ccccc32)cc1 | · | -22 | 3536 | · | -2 | · | ·
Cc1cc(=O)oc2cc(OCC(=O)N3CCN(C(=O)C4COc5ccccc5O4)CC3)ccc12 (stereo not given) | -3.2 | -3 | 4694 | 1 | 8 | 10 | 1
COc1ccccc1CNC(=O)C(=O)Nc1ccc(C(=O)N2CCC(C)CC2)cc1 | 0.3 | -16 | 5117 | 3 | -4 | -3 | 7
N/C(Cc1cccc2ccccc12)=N\OC(=O)c1ccc2c(c1)OCO2 | · | -13 | 2200 | · | 5 | · | ·

A section from further up, for reference:
SMILES | RN4220 kill | PrP UTR inh | Bead autofluor | Sa ugtP lethal | BJeLR viability | Mtb hypoxia inh | Mtb hypoxia inh growth
CC(=O)Nc1ccc(NC(=O)c2ccc(Cl)nc2)cc1 | 1.2 | 4 | 3762 | 7 | 12 | 6 | 9
O=S(=O)(NCc1ccccc1)NCc1ccccc1F | 6.0 | -6 | 2658 | 0 | 2 | 0 | 4
Cc1cc(C)[n+](CCCC[n+]2c(C)cc(C)cc2C)c(C)c1 | 2.9 | 10 | 3875 | 2 | -6 | 3 | 14

Sorted by number of heavy atoms (rising): part of the list above
SMILES | RN4220 kill | PrP UTR inh | Bead autofluor | Sa ugtP lethal | BJeLR viability | Mtb hypoxia inh | Mtb hypoxia inh growth
NNC(=O)[C@H](Cc1ccccc1)NC(=O)Nc1ccc2c(c1)OCCO2 | 2.4 | -17 | 5487 | 2 | -9 | 9 | 2
CCOC(=O)CSc1nnc(CNC(=O)c2cccs2)n1CCc1ccccc1 | 6.0 | -16 | 11514 | 4 | -9 | 5 | 12
COc1ccccc1CNC(=O)C(=O)Nc1ccc(C(=O)N2CCC(C)CC2)cc1 | 0.3 | -16 | 5117 | 3 | -4 | -3 | 7

Following part
SMILES | RN4220 kill | PrP UTR inh | Bead autofluor | Sa ugtP lethal | BJeLR viability | Mtb hypoxia inh | Mtb hypoxia inh growth
CN1C(c2ccc(F)cc2)=CS/C1=C(/C#N)c1nnc(N2CCOCC2)n1-c1ccccc1 | 5.3 | -22 | 2647 | 8 | 1 | 8 | 2
CCOC(=O)c1c(/N=C/C2C(=O)NC(=S)NC2=O)sc2c1CCC2 | · | -13 | 4582 | · | 5 | · | ·
COc1ccc(C)cc1C1=CC(=O)CC(c2ccc(F)cc2)C1 (stereo not given) | 1.0 | · | · | 1 | · | 17 | 8
COc1cccc(-c2nnn(CCc3nn[nH]n3)n2)c1 | 7.3 | -9 | 4400 | 3 | 4 | 10 | 6
O=C1CC(NCc2ccncc2)C(=O)N1c1ccccc1 (stereo not given) | 4.3 | -22 | 3557 | 4 | 0 | 11 | 5
COc1ccc(CSCC(=O)Nc2ccccc2SC)cc1 | 8.0 | 7 | 2355 | -2 | 1 | 6 | 9
O=C(Cn1c(=O)n(-c2ccccc2)c(=O)n1CC(=O)N1CCCCC1)N1CCCCC1 | 5.4 | -19 | 8656 | 0 | -5 | -3 | 7
CCOc1ccc(C2Nc3ccccc3NC3=C2C(=O)CC(C)(C)C3)cc1OC (stereo not given) | -0.2 | -18 | 3556 | 8 | -6 | 5 | -3
CNS(=O)(=O)c1cccc(C(=O)OCC(=O)Nc2ccccc2OC(F)F)c1 | -0.1 | -8 | 2787 | 6 | 3 | · | ·
O=C(CN(C(=O)c1csnn1)c1ccccc1C(F)(F)F)NCc1ccccc1 | -0.7 | -11 | 4058 | 8 | -2 | 7 | -2
O=C1CN(C(=O)NCC(=O)N[C@@H](C(=O)O)c2ccccc2)c2ccccc2N1 | 7.1 | -10 | 5815 | 4 | 12 | -11 | -6
O=C(O)/C=C/c1ccc2c(c1)OCCO2 | 1.7 | -28 | 3359 | 6 | -10 | 11 | -2
CC(C)CC1NC(=O)C(Cc2ccc(O)cc2)NC(=O)C(CCC(N)=O)NC(=O)c2cc([N+](=O)[O-])cc(I)c2NCCC(C(N)=O)NC1=O (stereo not given) | 5.6 | · | · | 0 | · | 1 | 5
Cc1ccc(C(=O)N2CCN(c3ncnc4c(C)csc34)CC2)cc1 | 0.2 | -33 | · | -1 | 9 | 8 | 6
COC(=O)c1[nH]c2ccccc2c1NS(=O)(=O)c1ccc(F)c(C)c1 | 8.6 | -2 | 16616* | 4 | 8 | 6 | 6
O=c1[nH]c(=O)n(Cc2ccc(F)cc2)c(O)c1C=NCCCn1ccnc1 | 0.6 | -15 | 20628* | 4 | -3 | 3 | 7
O=C(Nc1ccc(N2CCCC2)cc1)C(c1ccccc1)c1ccccc1 | 11 | -15 | 3844 | 5 | 5 | -1 | 8
Cc1nnc(SCC(=O)Nc2ccccc2)n1CCc1ccccc1 | 7.4 | -19 | 10003 | 7 | -6 | 12 | 5
Cn1c(SCC(=O)Nc2ccccc2F)nnc1C1CCCCC1 | -2.3 | 2 | 4604 | 0 | 4 | 14 | 12
COc1ccc(-c2cc(=O)oc3c(C)c(OCc4nn[nH]n4)ccc23)cc1 | 6.1 | -3 | 23374* | 0 | 1 | 2 | 8
COc1ccc(-n2c(SCC(=O)Nc3cc(C)on3)nc3c([nH]c4ccccc43)c2=O)cc1 | 7.4 | 15 | 5533 | -6 | 7 | -8 | -11
COC(=O)C1=COC(C)C2CN3CCc4c([nH]c5cc(OC)c(OC)cc45)C3CC12 (stereo not given) | 25 | 0 | 5316 | 4 | -4 | · | ·
Fc1ccc(-c2nnn(Cc3nc4ccccc4s3)n2)cc1 | 4.5 | -9 | ? | 1 | 0 | 3 | 0
CCn1c(C)c(C(C)=O)c(N2CCN(c3cccc(Cl)c3)CC2)nc1=S | -2.8 | -13 | 7382 | 7 | -6 | · | ·
Cc1nc(OCC(C)C)c2sc3nc4c(cc3c2n1)COC(C)(C)C4 | 2.2 | · | · | 19 | 2 | 12 | 17
COc1ccc(C2CC(=O)NC(=O)C2)cc1 | -0.7 | -12 | 4109 | 1 | 5 | -4 | -13
COc1ccc(C(=O)ON=C2CCN(c3ccc([N+](=O)[O-])cc3)CC2)cc1 | 6.1 | -1 | 5549 | 10 | 6 | 7 | 2
CCOC(=O)C1(Cc2ccc(OC)cc2)CCN(C(=O)CCn2ccc(C)n2)CC1 | 4.5 | -21 | 2396 | 2 | 8 | 3 | 12
COCCOc1cc(NC(=O)c2sccc2Oc2ccc([N+](=O)[O-])cc2F)c(Cl)cc1Cl | -5.9 | -9 | 2123 | 8 | 5 | · | ·
O=C(N/N=C/C1CC=CCC1)c1cc(-c2cccnc2)nc2ccccc12 (stereo not given) | · | -5 | 2360 | · | -9 | · | ·
Cc1ccc(S(=O)(=O)N2CCN(C(=O)CN3CCOCC3)C2c2ccccc2)cc1 (stereo not given) | 1.2 | 1 | 2536 | -10 | 7 | 7 | 10
CCOC(=O)C1CCCN(C(=O)C2c3ccccc3Oc3ccccc32)C1 (stereo not given) | 2.6 | -8 | 10302 | 27 | 5 | -6 | -10
O=C1CNC(=O)N1 | 11 | -13 | 6089 | 0 | 1 | 5 | 0
CN(CC(=O)Nc1ccc(Cl)c(C(F)(F)F)c1)C(=O)COC(=O)C1CC2CCCC(C1)C2=O (stereo not given) | 5.1 | -3 | 3011 | 6 | · | 11 | 4
Cc1cc(F)ccc1NC(=O)c1cc(S(=O)(=O)N2CCc3ccccc32)cn1C | 4.2 | -16 | 5446 | 5 | 5 | 6 | 3
CC(C)c1nnc(NC(=O)c2cc3ccccc3o2)s1 | 4.6 | -49 | 3033 | 10 | 8 | -1 | -9
CC(C)c1ccc(N=Cc2c(O)n(C3CC3)c(=S)[nH]c2=O)cc1 | 0.3 | -17 | 3882 | -4 | -4 | -12 | 4
Cc1cc(SC(C)C(=O)O)nc2ccccc12 (stereo not given) | 5.4 | -22 | 4045 | 4 | 4 | 10 | 6
COc1cccc(C(=O)NCC2(c3ccccc3)CCCC2)c1OC | 8.3 | -22 | 3724 | 16 | 0 | 13 | 0
CN(C(=O)COC(=O)c1ccccc1OCc1ccc(F)cc1)C1CCS(=O)(=O)C1 (stereo not given) | -2.1 | -20 | 4216 | 0 | · | 5 | 2
COc1ccccc1CNC(=O)C1CCCN(S(=O)(=O)c2cccc3cccnc23)C1 (stereo not given) | 1.9 | -5 | 6151 | 2 | 1 | · | ·
CCOC(=O)Nc1ccc2c(c1)N(C(=O)OCCN(C)C)c1ccccc1CC2 | 2.1&2.3 | -12&11 | 5844&5851 | 6&-2 | -3&-4 | · | ·
O=C(Nc1ccc(Cl)c(-c2nc3ccccc3[nH]2)c1)c1cccnc1 | -4.3 | -11 | 8579 | 18 | -3 | 3 | 1
